# Cruzain inh Det – blocks cruzain activity in presence of Triton detergent | P25779 | purified cruzain, Z-FR-AMC fluorescence, 0.01% Triton | Potency, µM, for the others: max response, negative = inhibition, usual class: inhibitors | 200,000 compounds, 0.43% hits | AID 1478;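 note: plate controls were neutral wells for no effect and buffer without enzyme for full effect; nearly all actives have a fitted effect of over 40% in size; top concentration of the series not given in the record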
# Target sequence (P25779 123-467 limits assumed): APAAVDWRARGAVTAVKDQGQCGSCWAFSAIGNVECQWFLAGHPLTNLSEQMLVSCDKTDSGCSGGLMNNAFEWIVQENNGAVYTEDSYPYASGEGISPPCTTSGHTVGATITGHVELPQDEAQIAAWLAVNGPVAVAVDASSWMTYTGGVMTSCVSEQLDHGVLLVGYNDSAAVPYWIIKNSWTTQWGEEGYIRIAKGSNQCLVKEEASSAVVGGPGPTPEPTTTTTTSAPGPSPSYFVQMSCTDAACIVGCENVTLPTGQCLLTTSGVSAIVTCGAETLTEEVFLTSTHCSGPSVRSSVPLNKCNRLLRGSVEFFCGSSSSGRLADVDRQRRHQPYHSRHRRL
#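 Enzyme 1.5 nM, Z-FR-AMC 2 uM, NaOAc 100 mM pH 5.5, DTT 5 mM, Triton X-100 0.01%; 15 min RT compound preincubation; kinetic ex360/em450, 60 s delta.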
# MARV entry inh – Marburg virus entry inhibition. Marburg virus pseudotyped entry inhibition, cell reporter; control for the full effect not named in the record; about a third of the inactives were read at about 46 µM. Potency, µM (highest dose often 37.8 µM), for the others: top-dose activity change, negative = inhibition, actives largely listed as inhibitors. 300,000 compounds, 1.8% hits. AID 540276; active = well fitted inhibition curve with a large enough effect; inconclusive = small, poorly fitted or top-dose-only effect, or effect the other way; inactive = flat fitted curve, though single readings scatter; tested in HEK293 cells; about a fifth of its hits are not listed in these tables; note: % is set by controls: 0 for no effect and ±100 for the full control effect; luciferase read-out
# SARS PLpro yeast – SARS-CoV PLP inhibition in yeast; S. cerevisiae expressing SARS-CoV PLpro, growth rescue; control for the full effect not named in the record; Potency, µM (top dose mostly 32.9 µM), for the others: top-dose activity, positive = growth rescue; 330,000 compounds, 0.19% hits; AID 485353; active means well fitted rising curve with a large enough effect; inconclusive means small, poorly fitted or top-dose-only effect; inactive means no such curve, though single readings can be large or run the other way; note: 0% is about no effect; nearly all actives have a fitted effect of over 55% in size; growth read by luminescence after 48 h
# LASV entry inh – inhibitors of Lassa virus binding or cell entry; AID 540256; Potency, µM (series often up to 37.9 µM), for the others: top-dose activity change, negative = inhibition, most hits filed as inhibitors; Lassa virus pseudotype entry inhibition, cell reporter; control for the full effect not named in the record; 300,000 compounds, 1.2% hits; active means well fitted inhibition curve with a large enough effect; inconclusive means small, poorly fitted or top-dose-only effect, or effect the other way; inactive means flat fitted curve, though single readings scatter; tested in HEK293 cells; note: % is set by controls: 0 for no effect and ±100 for the full control effect; nearly all actives have a fitted effect of over 50% in size; luciferase read-out
# Cruzain inh noDet – blocks cruzain activity in detergent-free assay | 200,000 compounds, 2.3% hits | AID 1476 | Potency, µM, inactives show max response, negative = inhibition, hits mostly inhibitors | purified cruzain, Z-FR-AMC fluorescence, no detergent | P25779;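 note: plate controls were enzyme without inhibitor for no effect and buffer without enzyme for full effect; nearly all actives have a fitted effect of over 40% in size; top concentration of the series not given in the record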
#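 Detergent-free condition (0.00005% Triton X-100) in acetate buffer pH 5.5 with DTT. 1.5 nM enzyme and compound were pre-mixed 15 min, then 2 uM Z-FR-AMC substrate added; reaction progress from fluorescence change between first and third reads (60 s).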
# 2A StopGo – lowers the luciferase signal of an FMDV 2A StopGo reporter. human cells with a luciferase reporter of 2A StopGo recoding; control for the full effect not named in the record. Potency, µM (highest dose often 57.9 µM), for the others: top-dose signal change, negative = less light. 410,000 compounds, 1.2% hits. AID 1159524; active = well fitted falling curve with a large enough effect; inconclusive = small, poorly fitted or top-dose-only effect; inactive = no such curve, though single readings can be large or run the other way; tested in HEK293T cells; note: % is set by controls: 0 for no effect and ±100 for the full control effect; nearly all actives have a fitted effect of over 45% in size; luciferase light after 4 h
# RE007 growth inh – less growth of the S. pombe RE007 Vpr strain; S. pombe RE007 Vpr strain, BacTiter-Glo ATP luminescence, 24 h; control for the full effect not named in the record; Potency, µM (series often up to 92.2 µM), without a hit: at the top dose activity change, negative = less growth; 360,000 compounds, 0.21% hits; AID 651644; active = well fitted falling curve with a large enough effect; inconclusive = small, poorly fitted or top-dose-only effect; inactive = no such curve, though single readings can be large or run the other way;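 note: % is set by controls: 0 for no effect and ±100 for the full control effect; nearly all actives have a fitted effect of over 50% in size; the assay follows cell death caused by Vpr and the record does not say whether a fall means rescue or toxicity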
#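 Fission yeast strain RE007, carrying one chromosomally integrated HIV-1 vpr copy, was seeded at OD 0.01 in PMG+AL medium with 23 nL pinned compound. After 24 h at 30 °C and 99% humidity, viability was read by BacTiter-Glo luminescence.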
# NS1 function inh – blocks influenza NS1 protein function; 270,000 compounds, 0.4% hits; Potency, µM (titrated, usually from 46.1 µM), for the others: at the highest dose activity, positive = more growth; S. cerevisiae slowed by influenza A NS1, growth recovery by OD600; active means well fitted rising curve with a large enough effect; inconclusive means small, poorly fitted or top-dose-only effect; inactive means no such curve, though single readings can be large or run the other way; note: nearly all actives have a fitted effect of over 50% in size
#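 Growth recovery, yeast-based: influenza A NS1 expressed in S. cerevisiae causes slow growth, and suppressors are detected by OD600. The parent strain without NS1 is used as positive control.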
# The depositor's hits bear a star; ? = inconclusive; . = not tested or not shown; & = joins results of further samples; [ ] = dose if it differs, or a comment. Unless noted, calls come from the whole dose curve; as a rule, active = well fitted curve in the direction sought with a large enough effect; inconclusive = small, poorly fitted or top-dose-only effect, or another doubt; inactive = no such curve, though single readings can be large; an effect the other way counts as inactive or inconclusive. Potency is the fitted concentration of half-maximal effect.
SMILES,Cruzain inh Det,MARV entry inh,SARS PLpro yeast,LASV entry inh,Cruzain inh noDet,2A StopGo,RE007 growth inh,NS1 function inh
COc1cc(OC)cc(C(=O)N(Cc2nc(-c3cccc(C)c3)no2)C(C)C)c1,-5.6%,20%&20%,-14%,-8%,?,-25%,-21%,-45%
CCn1cc(CN2CCC(C(=O)Nc3ccc(Oc4cccnc4)cc3)CC2)c(C)n1,.,7%,-2%,-13%,.,0%,-9%,14%
O=C(NC(=S)Nc1cccc(Cl)c1Cl)C1CC1,.,.,-1%,.,.,9%,1%,-19%
COc1ccccc1C(=O)N1CCCC(c2nc(-c3cc(OC)c(OC)c(OC)c3)no2)C1 (stereo not drawn),-2.5%,?,-3%,-20%,?,-24%,-9%,-34%
Cc1nc(C(=O)N2CCOCC2)sc1C1(C)CC(c2ccccc2)=NO1 (stereo not drawn),.,.,2%,.,.,-5%,7%,-4%
O=C1c2ccccc2C(=O)N1CC#CCN1CCN(C2CCCCC2)CC1,2.0%,0%,-3%,10%,6%,0%,-6%,5%
Cc1ccc(NC(=O)c2cc3nc(-c4ccccc4)cc(-c4ccccc4)n3n2)cc1,-2.2%,.,.,2%[46.1 µM],1%,-8%,.,.
CCCCn1nnnc1NCc1cccnc1,2.8%,-19%,0%,-17%,0%,-2%,-3%,-1%
O=Cc1cn(Cc2ccccc2F)c2ccccc12,.,?,5%,?,.,-8%,3%,.
COc1ccc(N2C=C3C(=O)C(C)(OC(=O)CCc4ccccc4)C(=O)C=C3C=C2c2ccc(C#N)cc2)cc1 (stereo not drawn),.,.,-1%,.,.,-7%,-7%,5%
CCN(CC)S(=O)(=O)c1ccc(Cl)c(NC2=NCCCCC2)c1,.,-13%[46.1 µM],-2%,-9%[46.1 µM],.,-5%,-21%,.
COc1cccc2cc(C(=O)C3=C(O)C(=O)N(CCN4CCOCC4)C3c3cccs3)oc12 (stereo not drawn),-2.4%,12%,-2%,4%,6%,-12%,-2%,-13%
COc1cccc(OC)c1C(=O)OCC(=O)NCCCc1ccccc1,.,.,-2%,.,.,30%[activator],7%,-10%
O=C(NCc1ccco1)c1ccc(-c2ccccc2Cl)o1,.,-11%[46.1 µM],-28%,?,.,28%,-25%,.
Cc1ccc(C(C)(C)C)c(OCCOCCN2CCCC2)c1,-3.2%,12µM*,-7%,?,-14%,7%,-2%,-12%
Cc1ccc(OCC(=O)Nc2ccc(CN3CCOCC3)cc2)cc1C,.,-5%,23%,4%,.,-30%,6%,-5%
COCCN(CCOC)C(=O)Nc1ccc(Cl)cc1,.,22%[46.1 µM],3%,0%,.,27%,?,.
COc1ccc(C(=O)NCC(=O)N/N=C/c2cccnc2)cc1,.,.,-13%,.,.,-9%,-4%,1%
O=C(c1ccc2c(c1)CCN2S(=O)(=O)c1ccc(Cl)cc1)N1CCN(c2ccccc2)CC1,-1.0%,8%[46.1 µM],.,3%[46.1 µM],?,-19%,.,.
Cc1ccc(S(=O)(=O)NCCC(=O)Nc2ccc(C)cc2C(=O)c2ccccc2)cc1,-6.4%,?,21%,-8%,-4%,-14%,-8%,-1%
Cc1ccc(-c2csc3ncnc(NS(=O)(=O)c4ccc(Cl)cc4)c23)cc1,-2.5%,-2%,-5%,?,-30%,-5%,8%,3%
CC(C)c1ccc(C(=O)N2CCN(CCO)CC2)cc1,10%,22%,3%,-15%,2%,-8%,-21%,-6%
CC(C)(C)NC(=O)N1CCN(c2nc3ccc(Cl)cc3s2)CC1,.,?,0%,13%[46.1 µM],.,-6%,-2%,-6%
O=C(CSc1nc(N2CCCCC2)nc(N2CCCCC2)n1)N1CCN(c2ccccc2)CC1,-4.8%,?,1%,?,-3%,?,13%,-48%
CN(CP(=O)(O)C(O)c1ccccc1)S(C)(=O)=O (stereo not drawn),3.0%,-2%,21%,-1%,-5%,-4%,22%,-12%
CC1CN(C(=O)c2cc(S(=O)(=O)N3CCCC3)c(Cl)cc2Cl)CC(C)O1 (stereo not drawn),-4.4%,-20%,1%,7%,-5%,.,-1%,?
COc1ccccc1OCCOCCN1CCCC1,.,.,-1%,.,.,-4%,14%,-10%
O=C(NCc1ccc(F)cc1)N[C@@H](Cc1ccccc1)C(=O)O,-8.2%,12%,6%,-7%,-1%,?,-5%,1µM*
O=C(NCCc1ccc(Cl)cc1)c1ccc2nc(N3CCOCC3)sc2c1,.,.,3%,.,.,-16%,-7%,2%
COc1ccc(-c2cc(C)no2)cc1S(=O)(=O)Nc1cccc(C(F)(F)F)c1,-7.0%,.,.,-4%[46.1 µM],-2%,18%,.,.
Cc1ccc(N(CCCCN2C(=O)c3ccccc3C2=O)C(=O)c2cccs2)cc1,0.9%,?,5%,?,-3%,-29%,0%,13%
COc1ccc(C)cc1N(CC(=O)NC(C)c1ccccc1)S(C)(=O)=O (stereo not drawn),.,.,5%,.,.,3%,-7%,6%
CCN(CC)C(=O)Oc1ccc(Br)cc1C(=O)Nc1ccc(F)c(Cl)c1,.,?,0%,12%,.,-9%,-8%,6%
O=c1c2ccccc2n2nnnc2n1-c1ccccc1,2.2%,8%[46.1 µM],.,-4%,7%,-12%,8%,0%
Oc1ccc(Cl)c2cccnc12,-2.1%,-17%,.,-17%,8%,0%&20%,13%,.
O=C(N/N=C/c1ccc(O)c(O)c1)N/N=C/c1ccc(O)c(O)c1,.,?,-2%,-8%[46.1 µM],.,0%,-4%,2%
CCOC(=O)N1CCN(C(=O)c2cn(CC(C)C)c(=O)c3c2c2ccccc2n3C)CC1,-1.4%,-2%,13%,-25%,?,0%,5%,-4%
COCCN1Cc2cccc(C(=O)Nc3ccc(Cl)cc3Cl)c2C1=O,-5.5%,7%[46.1 µM],.,-2%[46.1 µM],-2%,-24%,.,.
C=CCn1c(-c2cc(-c3ccccc3)sc2N)n[nH]c1=S,.,?,-1%,-1%[46.1 µM],.,-13%,4%,9%
Cc1ccc(Nc2cc(-c3ccccc3)nc(C)n2)cc1,-10%,?,.,-3%[46.1 µM],-13%,31%[activator],.,.
Cc1c(C)n(CCCN(C)C)c2ncnc(Nc3ccccc3)c12,.,.,0%,.,.,-1%,7%,5%
COc1ccc(NC(=S)NNC(=O)c2cccs2)cc1,-0.7%,38%,-5%,6%,-1%,57%[activator],?,11%
O=[N+]([O-])c1ccc(Cl)c(S(=O)(=O)Nc2ccc(-c3ccc(N4CCOCC4)nn3)cc2)c1,.,12%,7%,6%,.,34%[activator],2%,.
CNS(=O)(=O)c1cn(CC(=O)NCc2cccc(OC)c2)cc1S(=O)(=O)NC,.,-7%[46.1 µM],-2%,-2%[46.1 µM],.,-8%,0%,6%
O=C(Nc1ccc(F)cc1)c1csc(Cc2ccccc2)n1,.,13%,-6%,5%,.,38%,-15%,.
COCCN(CC1CCCN(C2Cc3ccccc3C2)C1)C(=O)CCC(N)=O (stereo not drawn),.,?,-3%,-14%[46.1 µM],.,-8%,-9%,-10%
Cc1ccc(/C=C(\C#N)c2nc(-c3ccc(-c4ccccc4)cc3)cs2)cc1,-0.6%,.,.,9%[46.1 µM],-1%,-16%,.,.
COc1cc(NC(=O)c2ccccn2)cc(OC)c1OC,.,1%,0%,?,.,6%,-25%,.
O=C(CNc1ccc(Br)cc1)c1ccc(O)cc1,.,-12%[46.1 µM],-22%,?,.,35%[activator],-25%,.
CN(C(=O)COc1ncnc2ccccc12)C1CCCCC1,.,?,.,?,.,16%,9%,.
Cc1cc(C)cc(OCC(=O)Nc2ccc(N3CCCCC3)cc2)c1,.,19%,-3%,12%,.,-2%,-8%,.
O=C(CN1CCC(C(=O)c2ccc(Cl)cc2)CC1)Nc1ccc2c(c1)OCCO2,-2.5%,?,1%,?,-2%,?,-3%,-16%
CS(=O)(=O)N(CC(=O)N/N=C/c1cc2c(cc1Br)OCO2)c1ccccc1Br,2.9%,?,3%,-15%,-14%,-26%,-10%,-5%
O=C(NCc1ccccc1)C1=C[C@H](C2CC2)C[C@H](OCc2ccc(CO)cc2)O1,.,.,-1%,.,.,14%,5%,-3%
C/C=C/c1ccc(Oc2nnnn2-c2ccc(C(=O)O)cc2)c(OC)c1,-1.2%,8%,-2%,?,-11%,-2%,-2%,-46%
OCC[C@@H]1C[C@H](O)[C@@H](O)[C@]2(OCCc3ccccc32)O1,.,.,1%,.,.,-18%,-3%,3%
C=CCSc1nc(-c2ccccc2)c(C#N)c(=O)[nH]1,-2.7%,18%,0%,-5%,2%,-9%,10%,0%

# 7 of the compounds above, with values under each structure.
# Results follow in this order: Cruzain inh Det	MARV entry inh	SARS PLpro yeast	LASV entry inh	Cruzain inh noDet	2A StopGo	RE007 growth inh	NS1 function inh
COc1ccc(NC(=S)NNC(=O)c2cccs2)cc1
    -0.7%	38%	-5%	6%	-1%	57%[activator]	?	11%
O=[N+]([O-])c1ccc(Cl)c(S(=O)(=O)Nc2ccc(-c3ccc(N4CCOCC4)nn3)cc2)c1
    .	12%	7%	6%	.	34%[activator]	2%	.
CNS(=O)(=O)c1cn(CC(=O)NCc2cccc(OC)c2)cc1S(=O)(=O)NC
    .	-7%[46.1 µM]	-2%	-2%[46.1 µM]	.	-8%	0%	6%
O=C(Nc1ccc(F)cc1)c1csc(Cc2ccccc2)n1
    .	13%	-6%	5%	.	38%	-15%	.
COCCN(CC1CCCN(C2Cc3ccccc3C2)C1)C(=O)CCC(N)=O (stereo not drawn)
    .	?	-3%	-14%[46.1 µM]	.	-8%	-9%	-10%
Cc1ccc(/C=C(\C#N)c2nc(-c3ccc(-c4ccccc4)cc3)cs2)cc1
    -0.6%	.	.	9%[46.1 µM]	-1%	-16%	.	.
COc1cc(NC(=O)c2ccccn2)cc(OC)c1OC
    .	1%	0%	?	.	6%	-25%	.
